Source: PubChem (Fisher Drug Discovery Resource Center)
NPYLR7 ag: activates Aedes aegypti NPYLR7 receptor | HEK293T NPYLR7/Galpha15, GCaMP6s calcium fluorescence | activation, % at 10 µM | hit rate 0.15% among 270,000; in the data active means activation above about 40%;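 further: 0% = vehicle and 100% = reference agonist at the receptor; some compounds past the cut are filed as inactive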
NPYLR7 ag max-min: recorded beside NPYLR7 ag, whose call it bears; activation, %; measured here: Max-Min RFU normalised activation; some inactives read as strong as hits;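 span of the calcium signal over five minutes; 0% = vehicle and 100% = native peptide agonist; compound fluorescence can raise it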
Active calls of the source: *; & = joins results of further samples.

Preview (21 entries):
SMILES	NPYLR7 ag	NPYLR7 ag max-min
O=C(NC(c1ccccc1)c1ccc(Cl)cc1)c1cc(-c2ccc3c(c2)OCO3)nc2ccccc12 (stereo not drawn)	-1	9
CC1(C)CC(=O)C2C(=Nc3ccccc3NC2c2ccc(Cl)cc2)C1 (stereo not drawn)	18	11
O=c1c2cnc3ncnn3c2ccn1CCc1c[nH]c2ccc(F)cc12	5	10
CCN(CC)S(=O)(=O)c1cc(C(=O)NCc2ccccc2)ccc1Cl	2	-4
O=C(NCCc1cn2c(n1)CCCC2)c1ccccc1O	7	7
Cc1ccc2c(C(=O)N3CCC(=O)NCC3C)cc(C)nc2c1 (stereo not drawn)	1	-3
O[C@@H]1C[C@H]2CN(c3nc(-c4ccccc4)nc4c3CCC4)C[C@H]2C[C@@H]1O	-3	0
COc1cccc(-n2nnc3c(N4CCN(C(=O)c5ccccc5C(F)(F)F)CC4)ncnc32)c1	-10	-16
COc1cccc(CN2C(=O)C3(SCCN3C(=O)C3CC3)c3cc(Cl)ccc32)c1 (stereo not drawn)	4	4
C=C(C)Cn1c(NCc2ccc(C)cc2)nc2c1c(=O)[nH]c(=O)n2C	-6	3
O=C(Nc1ccc(F)cc1F)C(C1CCCC1)N1CCN(C(=O)c2cccc(F)c2)CC1 (stereo not drawn)	-7	11
CC(C)C(=O)NC(=S)Nc1cccc(Cl)c1Cl	-6	-8
CCn1ccnc1CN(C)Cc1nc(-c2sccc2C)oc1C	9	0
CC1Cc2c(NC(=O)/C=C\c3ccccc3)nn(C)c2NC1=O (stereo not drawn)	-18	-20
COC(=O)c1c(C)c(C(=O)C(C)N(C(=O)c2ccccc2OC)C(C)C)c(C)n1C (stereo not drawn)	-11	-8
COc1ccc(C)cc1N1CCN(C(=O)c2ccco2)C(C)C1=O (stereo not drawn)	-13	-11
O=C(CCCc1cccs1)N1CCCC(Nc2ccccc2)C1 (stereo not drawn)	3	-1
COc1ccc(CNC(=O)Cn2ncn3nc4c(c3c2=O)CCCC4)cc1	-7	-14
CCCCCN(CC(=O)Nc1cc(C(C)(C)C)nn1-c1ccccc1C)C(=O)Nc1ccccc1C(F)(F)F	-2	6
Cc1ccnc(SCCn2c(N3CCC(C)CC3)nc3c2c(=O)n(C)c(=O)n3C)n1	1	16
COc1ccc(C(O)=C2C(=O)C(=O)N(CCN3CCNCC3)C2c2ccc(F)cc2)cc1 (stereo not drawn)	0	-5

All compounds of this part, repeating the preview:
SMILES	NPYLR7 ag	NPYLR7 ag max-min
O=C(NC(c1ccccc1)c1ccc(Cl)cc1)c1cc(-c2ccc3c(c2)OCO3)nc2ccccc12 (stereo not drawn)	-1	9
CC1(C)CC(=O)C2C(=Nc3ccccc3NC2c2ccc(Cl)cc2)C1 (stereo not drawn)	18	11
O=c1c2cnc3ncnn3c2ccn1CCc1c[nH]c2ccc(F)cc12	5	10
CCN(CC)S(=O)(=O)c1cc(C(=O)NCc2ccccc2)ccc1Cl	2	-4
O=C(NCCc1cn2c(n1)CCCC2)c1ccccc1O	7	7
Cc1ccc2c(C(=O)N3CCC(=O)NCC3C)cc(C)nc2c1 (stereo not drawn)	1	-3
O[C@@H]1C[C@H]2CN(c3nc(-c4ccccc4)nc4c3CCC4)C[C@H]2C[C@@H]1O	-3	0
COc1cccc(-n2nnc3c(N4CCN(C(=O)c5ccccc5C(F)(F)F)CC4)ncnc32)c1	-10	-16
COc1cccc(CN2C(=O)C3(SCCN3C(=O)C3CC3)c3cc(Cl)ccc32)c1 (stereo not drawn)	4	4
C=C(C)Cn1c(NCc2ccc(C)cc2)nc2c1c(=O)[nH]c(=O)n2C	-6	3
O=C(Nc1ccc(F)cc1F)C(C1CCCC1)N1CCN(C(=O)c2cccc(F)c2)CC1 (stereo not drawn)	-7	11
CC(C)C(=O)NC(=S)Nc1cccc(Cl)c1Cl	-6	-8
CCn1ccnc1CN(C)Cc1nc(-c2sccc2C)oc1C	9	0
CC1Cc2c(NC(=O)/C=C\c3ccccc3)nn(C)c2NC1=O (stereo not drawn)	-18	-20
COC(=O)c1c(C)c(C(=O)C(C)N(C(=O)c2ccccc2OC)C(C)C)c(C)n1C (stereo not drawn)	-11	-8
COc1ccc(C)cc1N1CCN(C(=O)c2ccco2)C(C)C1=O (stereo not drawn)	-13	-11
O=C(CCCc1cccs1)N1CCCC(Nc2ccccc2)C1 (stereo not drawn)	3	-1
COc1ccc(CNC(=O)Cn2ncn3nc4c(c3c2=O)CCCC4)cc1	-7	-14
CCCCCN(CC(=O)Nc1cc(C(C)(C)C)nn1-c1ccccc1C)C(=O)Nc1ccccc1C(F)(F)F	-2	6
Cc1ccnc(SCCn2c(N3CCC(C)CC3)nc3c2c(=O)n(C)c(=O)n3C)n1	1	16
COc1ccc(C(O)=C2C(=O)C(=O)N(CCN3CCNCC3)C2c2ccc(F)cc2)cc1 (stereo not drawn)	0	-5
O=C(NC1CCCCC1)c1ccc(Cn2cc(Br)cn2)o1	-3	-6
CCC1(c2ccc(F)cc2)NC(=O)N(CC(=O)N2CCCCC2)C1=O (stereo not drawn)	11	12
COc1ccc(N2CCN(c3cc(C(=O)NC4CC(C)CC(C)(C)C4)c4ccccc4n3)CC2)cc1 (stereo not drawn)	5	0
O=C(Nc1ccccc1Cl)C12CC3CC(CC(C3)C1)C2	-3	-9

The list continues.
SMILES	NPYLR7 ag	NPYLR7 ag max-min
COc1cccc(-c2nn(-c3ccccc3)cc2CN2CCN3CCCC3C2)c1 (stereo not drawn)	13	6
CCC(NC(=O)CN1CCC(C)=N1)c1ccc(F)cc1 (stereo not drawn)	22	15
O=C(CCl)N1CCCc2cc([N+](=O)[O-])ccc21	2	-1
O=C(N[C@@H]1[C@@H](c2ccccc2)[C@@H](CO)N2CCCC[C@H]12)c1cccs1	22	29
CCn1cc(C(CC(=O)NC2CCCCC2)c2ccc(F)cc2)c2ccccc21 (stereo not drawn)	-1	4
COC(=O)c1ccc2c(=O)n(Cc3ccc(C)cc3)c(N3CCN(c4ccccc4OC)CC3)nc2c1	12	5
Cc1cc(C(=O)N(Cc2cccnc2)c2nc3ccc(F)cc3s2)no1	0	-2
CCOC(=O)C1=C(C)NC2=C(C(=O)CCC2)C1c1ccc(OC)cc1 (stereo not drawn)	0	-5
COCCOC(=O)C1=C(C)N(C)C(=S)NC1c1ccc(NC(=O)c2ccc(Cl)cc2Cl)cc1 (stereo not drawn)	11	16
Fc1ccc(CC2CCN(Cc3nc(-c4ccccc4)no3)CC2)cc1	7	-3
CS(=O)(=O)N1CCCC(C(=O)Nc2nnc(-c3ccc(Cl)cc3)o2)C1 (stereo not drawn)	-5	-7
CCC(NC(=O)c1ccc(Cl)o1)c1cccc(S(N)(=O)=O)c1 (stereo not drawn)	7	13
Cc1ccc(OCC2CN(C(=O)C(C)Oc3cccc(Cl)c3)CCO2)cc1 (stereo not drawn)	21	10
Cc1nc(-c2ccc(N3CCCC3C(=O)N(C)C)nc2)[nH]c(=O)c1C (stereo not drawn)	-1	-1
O=C(CCn1ccc(=O)[nH]c1=O)Nc1cccc(-c2cn3c(n2)SCC3)c1	1	9
CCOC(=O)N1CCN(C(=O)c2cc(-c3cccc(OC)c3)n(-c3ccccc3)c2C)CC1	-13	-17
N[C@@H](CCCCNC(=O)c1cccnc1)C(=O)NNc1ccc(Cl)cc1	1	4
CC(C)CCN(Cc1cccn1C)CC(O)COc1ccc(Cl)cc1 (stereo not drawn)	0	5
CCN(CC)c1ccc(CN(C)C(=O)CCN2C(=O)c3ccccc3C2=O)cc1	2	0
Cn1c(-c2ccsc2)cc2c(Nc3cccc(O)c3)nccc21	15	16
CCOC(=O)Cn1ncc2c1CCN(C(=O)Cc1c[nH]c3ccc(OC)cc13)C2	0	24
CCCn1nc(C)c(Cn2cnc(-c3ccccc3)c2C2CCOC2)c1C (stereo not drawn)	-3	-7
CC(C)C(=O)NCCc1nc2ccccc2n1CCC1CCCCC1	0	-6
CC(C)OC(=O)c1cn(-c2ccc(F)cc2)c(=O)c2ccccc12	6	1
C=C(C)Cn1c(NN=Cc2cc(Br)c(O)c(OC)c2)nc2c1c(=O)n(C)c(=O)n2C	19	9

(more compounds)
SMILES	NPYLR7 ag	NPYLR7 ag max-min
O=C(NCCCNC(=O)[C@H]1CCCN1C(=O)c1ccccc1Cl)c1ccccc1	31	30
Cc1c(Cl)ccc2sc(N(CCN(C)C)C(=O)c3ccc(S(C)(=O)=O)cc3)nc12	1	-5
CCOC(=O)c1ccc2c(c1)nc(SCc1ccc(OC)c(C(F)(F)F)c1)n2Cc1ccco1	-3	-13
O=C(Cn1c(=O)oc2ccccc21)Nc1c(Cl)cc(Cl)cc1Cl	-6	17
COCCCn1c(SCc2ccc(OC(C)=O)cc2)nnc1-c1cc(-c2ccccc2)nc2ccccc12	-5	-10
CC(C)c1ccc(S(=O)(=O)c2nnn3c2nc(N2CCCC2)c2sccc23)cc1	-8	-13
CC1(O)CCN(C(=O)c2cc(Cl)cc(Cl)c2)CC1	3	1
COCCNC(=O)C(NC(=O)c1ccc(OC)cc1)C1CCN(C(=S)Nc2ccc(F)cc2)CC1 (stereo not drawn)	8	9
C=CCOC(=O)C1=C(C)N=c2sc(=Cc3ccc(OC)cc3OC)c(=O)n2C1c1cccs1 (stereo not drawn)	1	-2
CCC(O)c1nc2ccccc2n1CCCCOc1ccccc1 (stereo not drawn)	3	9
Fc1ccc(-c2noc3nc(NCC4CCCO4)ccc23)cc1 (stereo not drawn)	2	0
Cc1c(Cl)cccc1NC(=O)C(C)N1CCCC(C2OCCO2)C1 (stereo not drawn)	3&-2	1&-4
Cc1ccc(C2=NOC(=O)/C2=C\C=C\c2ccccc2)cc1	-1	37
Cc1ccc(F)c(Oc2cc(N3CCC(Cc4ccccc4)CC3)ncn2)c1	1	5
CCCCNC(=O)c1ccc(-c2ccccc2CO)o1	1	0
COc1ccc(-n2c(SCC(=O)N3CCN(C(=O)C(c4ccccc4)c4ccccc4)C(C)C3)nnc2-c2cccc(OC)c2)cc1 (stereo not drawn)	-3	3
CC(C)CCN(Cc1ccc(F)cc1F)CC(O)COC(C)(C)C (stereo not drawn)	27	25
Cc1ccccc1NC(=O)CC(=O)NC1(c2ccccc2Cl)CC1	-1	-6
CCCCc1ccc(CC(=O)Nc2nncs2)cc1	4	2
CC(N)c1ccc(S(C)(=O)=O)cc1 (stereo not drawn)	4	12
O=C(CSc1nnc2nc[nH]n12)Nc1nccs1	-3	-10
COc1cc(F)c(CSc2nc3cc(S(=O)(=O)N4CCCC4)ccc3n2CC2CC2)cc1OC	25	14
Cc1ccc(S(=O)(=O)N(Cc2nccn2Cc2ccc(F)c(F)c2)CC2CC2)cc1	6	16
Cc1cccc(COC(CN2CCN(C(=O)Nc3cc(F)ccc3F)CC2)c2ccc(Cl)cc2)c1 (stereo not drawn)	28	19
CC(=O)c1cccc(NC(=O)c2cc(S(=O)(=O)N3CCOCC3)ccc2Cl)c1	-4	-9

Continuation:
SMILES	NPYLR7 ag	NPYLR7 ag max-min
COc1ncc(CN(C)Cc2cc3cc(F)ccc3[nH]2)cn1	5	-1
CCCNC(=O)CC1(C)N=C(c2ccc(C(C)C)cc2)N(C)O1 (stereo not drawn)	7	6
Cc1cccc(Oc2cc(N3CCN(C(=O)c4ccccc4Br)C(C)C3)ncn2)c1 (stereo not drawn)	14	12
O=C(NCCc1ccco1)c1ccc(C2SCCCS2)cc1	-11	-10
Cc1ccccc1-n1nc(C(C)(C)C)cc1NC(=O)CN(Cc1ccccc1)C(=O)c1ccc(Cl)c([N+](=O)[O-])c1	20	25
COc1c(C)cc(-c2cccc(N)n2)cc1C	0	-1
c1ccc(C2C/C(=N\Nc3ncccn3)c3ccccc3O2)cc1 (stereo not drawn)	1	0
CC(C)CN1CC(C)(C)CN(C(=O)Cc2ccccc2)CC1=O	2	10
c1ccc(Oc2nnc(-c3ccccc3)c3ccccc23)cc1	-6	-11
COc1ccc(-c2oc3cc(OC)ccc3c2C(=O)c2ccc(C#N)cc2)cc1	6	4
CC(C)CCn1c(N2CCN(Cc3ccccc3F)CC2)nc2c1c(=O)[nH]c(=O)n2C	0	54
COc1cccc(C(=O)N2CCN(c3cc(Cl)nc(SCC(=O)N4CCC5(CC4)OCCO5)n3)CC2C)c1 (stereo not drawn)	-4	7
COc1ccc(C=NN2CCN(Cc3ccccc3Cl)CC2)c(OC)c1OC	-7	-13

Only part of the results is shown; rates above refer to the full screens.
